Screening data (PubChem)
RGS16-Gao HTS: modulates binding between human RGS16 and Galphao; O15492+P09471; bead-based flow cytometry RGS16-Galphao binding, fluorescence; actives lie on both sides; binding response (% of control), % at 10 µM; actives 0.38% (n = 220,000);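 active = below 25% or above 175%, edge rows of some plates excepted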;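 also: Galphao activated by GDP with aluminum fluoride before binding; 100% = wells without compound and 0% = beads without RGS; some results beyond the cut were filed as inactive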
Target sequence (O15492 whole entry, looked up): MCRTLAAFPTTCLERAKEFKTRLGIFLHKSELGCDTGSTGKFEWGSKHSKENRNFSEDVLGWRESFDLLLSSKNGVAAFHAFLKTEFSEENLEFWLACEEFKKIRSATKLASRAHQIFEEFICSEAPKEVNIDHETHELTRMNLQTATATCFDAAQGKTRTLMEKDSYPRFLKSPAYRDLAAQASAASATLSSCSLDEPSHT
Target sequence (P09471 whole entry, looked up): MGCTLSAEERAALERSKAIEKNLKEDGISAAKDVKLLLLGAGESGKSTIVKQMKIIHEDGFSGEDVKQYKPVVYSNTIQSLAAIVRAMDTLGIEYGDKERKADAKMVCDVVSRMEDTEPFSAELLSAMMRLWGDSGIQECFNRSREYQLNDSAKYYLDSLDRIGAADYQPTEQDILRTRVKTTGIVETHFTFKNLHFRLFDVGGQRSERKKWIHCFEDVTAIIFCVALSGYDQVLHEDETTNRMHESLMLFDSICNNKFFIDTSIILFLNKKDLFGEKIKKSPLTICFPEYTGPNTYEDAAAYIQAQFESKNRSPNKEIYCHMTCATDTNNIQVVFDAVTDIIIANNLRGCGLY
PKD1 kinase inh: inhibitors of human PKD1 kinase | Q15139 | actives 0.056% (n = 200,000) | inhibition, %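 (about 10 µM by stock and volumes)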 | PKD1 kinase fluorescence polarization assay;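 active = inhibition of 50% or more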;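 also: controls were vehicle for no effect and a reference inhibitor for full effect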
INS promoter inh: TRM-6 insulin promoter activity inhibition; TRM-6 cells (human fetal islet line), insulin promoter-eGFP reporter, imaging; reporter expression induced with tamoxifen; inhibition, % at 2 µM; actives 0.9% (n = 130,000);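 active = inhibition above the mean plus 3 SD, with well images judged a real hit on visual review, cut at about 60% in these data, passing the limit was not always enough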
GALR2 ag: agonists of human galanin receptor 2 (GALR2). O43603. GALR2-expressing cells, agonist activation read-out. activation, %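 (tested at 5 µM)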. actives 0.48% (n = 140,000);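 active = above mean plus 3 SD of all compounds, about 5% in these data, not always enough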;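 also: 0% = vehicle buffer wells and 100% = reference agonist at full effect; tested in CHO reporter cells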
Target sequence (O43603 whole entry, looked up): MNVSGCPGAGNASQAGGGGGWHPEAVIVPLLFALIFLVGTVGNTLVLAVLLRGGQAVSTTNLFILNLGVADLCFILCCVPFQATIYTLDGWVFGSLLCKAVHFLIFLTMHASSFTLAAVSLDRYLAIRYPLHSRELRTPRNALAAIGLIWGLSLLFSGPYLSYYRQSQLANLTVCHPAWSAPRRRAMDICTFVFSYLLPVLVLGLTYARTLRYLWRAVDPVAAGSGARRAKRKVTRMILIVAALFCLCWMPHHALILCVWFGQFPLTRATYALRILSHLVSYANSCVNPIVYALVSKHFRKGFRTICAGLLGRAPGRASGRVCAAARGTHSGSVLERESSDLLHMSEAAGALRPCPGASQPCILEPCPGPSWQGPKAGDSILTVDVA
HSV augment: increases HSV replication in cells | actives 0.005% (n = 220,000) | HSV replication augmentation in cells, fold increase | maximum fold increase;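 active = peak rise of 1.5-fold or more in the series; tested in PC3 cells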;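 also: first round at 10 µM; read as green reporter fluorescence; hits show the peak of a series up to 25 µM; 1 = signal of infected wells without compound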
INS promoter inh cell count: second read-out of INS promoter inh, no call of its own (marks repeat the call); normalized cell count, %; measured here: cell count, toxicity; reference of the scale not given here;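 cells exposed to compound for 48 h; stained nuclei by imaging scaled within each plate; lower means fewer cells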
HSV augment primary fold: also measured in HSV augment; calls as there; fold increase; compound at 10 µM; measured here: primary screen fold increase 10 uM; tested in PC3 cells;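 GFP signal in the first replicate; 1 = infected wells without compound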
The depositor's hits bear a star; i = inactive; nt = no result given.

molecule,RGS16-Gao HTS,PKD1 kinase inh,INS promoter inh,INS promoter inh cell count,GALR2 ag,HSV augment,HSV augment primary fold
COc1ccc(/C(C)=N/N2C(=O)c3ccccc3NC2c2ccc(O)c(OC)c2)cc1 (stereo not drawn),100,-5,nt,nt,nt,nt,nt
Cc1c(Br)c([N+](=O)[O-])nn1CC(=O)N1CCc2ccccc21,104,7,nt,nt,nt,i,1.1
Cc1ccc(SC(c2ccccc2)C(Cn2cncn2)C(=O)c2ccccc2)cc1 (stereo not drawn),99,-1,25,129,0.0,i,0.9
CC(c1nnc(SCC(=O)c2c(N)n(C)c(=O)n(C)c2=O)n1-c1ccc(Cl)cc1)N(C)C (stereo not drawn),94,-14,-62,50,0.7,i,0.69
Cc1nc2cc(C(F)(F)F)ccc2n1C1CCN(C(=O)N2CCOCC2)CC1,106,-9,-80,144,-0.6,i,1
Cc1ccc(C(=O)Nc2ccc3cn[nH]c3c2)cc1S(=O)(=O)N1CCCCC1,104,4,15,86,-0.4,i,0.86
CCCCN(C(=O)CSc1cc(C)c2ccccc2n1)c1c(N)n(Cc2ccccc2)c(=O)[nH]c1=O,102,14,-33,95,-0.2,i,0.97
Cc1cc(/C=C(\C#N)C(=O)O)c(C)n1CC1CCCO1 (stereo not drawn),101,-3,33,24,nt,i,1
Cn1ncc(Cl)c1C(=O)Nc1cccnc1,91,-3,-50,139,-2.3,i,0.98
O=C(c1ccc(F)cc1)C1CCN(C(=O)Nc2ccccc2Cl)CC1,106,8,nt,nt,nt,i,1.1
CCCNC(=O)c1ccccc1C(=O)NC1(C(=O)NCCC)CCCC1,97,nt,nt,nt,nt,i,1.1
O=C(NCCN1CCOCC1)[C@H](Cc1ccccc1)N1C(=O)c2ccccc2C1=O,106,-6,-14,118,-1.5,i,0.95
CSc1ncnc2sc(C)c(C)c12,100,-5,-439,44,nt,i,0.89
Cn1c(CO)cnc1-c1ccccc1,150,nt,nt,nt,nt,i,1.1
O=S1(=O)CC2SC(=S)N(Cc3ccccc3)C2C1 (stereo not drawn),98,nt,nt,nt,nt,i,0.97
CCOC(=O)c1ccc(NC(=O)CN(C)S(=O)(=O)c2ccc(Br)s2)cc1,102,-2,-17,133,-0.9,i,0.97
Cc1nc2ccc(CCO)cc2s1,110,-15,29,91,1.3,i,0.94
COc1ccc(CCN(C(=O)c2ccccc2)C2=CC3CCC(C2)N3C)cc1OC (stereo not drawn),94,-4,-6,113,-2.7,i,1.1
CCc1ccc2oc(-c3cccc(NC(=O)c4cccnc4)c3)nc2c1,105,0,-43,176,-0.6,i,0.96
COc1cc(C(=O)Nc2nnc(C)s2)c([N+](=O)[O-])cc1OC,101,nt,nt,nt,nt,i,1
Cc1ccc(C(=O)N/N=c2\sc3ccccc3n2C)cc1,115,-1,nt,nt,-2.0,i,1
CC1CCN(CCCCOc2ccc([N+](=O)[O-])cc2)CC1,100,-4,0,97,-2.8,nt,nt
Cn1ncc2c(NNC(=O)C3CCCCC3)ncnc21,109,-2,42,195,nt,i,0.91
CCC1CCCCN1C(=O)c1cc2cc(Br)ccc2oc1=O (stereo not drawn),98,-15,nt,nt,-3.2,i,1.1
CC1CN(C(=O)c2cccc(COc3ccccc3Cl)c2)CC(C)O1 (stereo not drawn),104,9,nt,nt,nt,i,1.1
O=C(O)CC(C(=O)Nc1ccc(Cl)cc1Cl)C1CCCO1 (stereo not drawn),90,-1,nt,nt,nt,i,1.2
CCOc1ccc(-c2ccc(SCC(=O)N3CCN(c4ccccc4)CC3)nn2)cc1,193,0,nt,nt,0.4,i,1.1
c1ccc(Sc2ncnc3c2oc2ccccc23)nc1,95,-6,nt,nt,-0.4,i,1
O=C(c1ccccc1)N1CCN(CC(O)Cn2ccc3ccccc32)CC1 (stereo not drawn),95,nt,nt,nt,nt,i,0.86
CC1=C(C(=O)OCC(C)C)C(c2cccc(F)c2)N2C(=O)C(C)SC2=N1 (stereo not drawn),105,1,-93,114,-1.5,i,1.1
CCOC(=O)C1CCCN(c2c(Nc3cccc(C)c3)c(=O)c2=O)C1 (stereo not drawn),110,-2,nt,nt,5.5,i,0.96
O=[N+]([O-])c1nn(-c2ccc3c(c2)OCCO3)n(O)c1=NC1CCN(Cc2ccccc2)CC1,93,-6,53,103,nt,i,0.82
C/C(=N\OCC(=O)N/N=C/c1ccccc1O)c1cccs1,99,-2,54,85,-1.7,i,0.81
C=C(C)COc1ccc(-c2nc(N)ncc2-c2ccccc2OC)c(O)c1,107,nt,nt,nt,nt,i,0.94
CCOC(=O)c1sc2nc(NC(=O)C3CCCCC3)sc2c1C,99,-8,nt,nt,0.5,i,0.91
CCCc1nnc(SCC(=O)N2CCCCC2C)n1CCCOC (stereo not drawn),90,-3,-5,204,-2.4,i,0.92
Cc1cccc(NS(=O)(=O)c2ccccc2)n1,99,-5,nt,nt,-2.6,i,0.66
CCOCCCNC(=S)NNC(=O)CCn1nc(C)c(Br)c1C,122,0,-17,140,-1.2,i,1.1
CC(=O)N1CCN(C(=O)CC2OC(=O)c3ccccc32)CC1 (stereo not drawn),110,-7,-6,69,-0.3,i,0.92
CCNC(=O)NC(=O)C(C)Sc1nc2ccccc2n1CC(C)C (stereo not drawn),102,-8,12,106,-3.6,i,0.85
COc1cc(/C=C/C(=O)OCC(=O)NCc2ccco2)cc(OC)c1OC,96,-10,32,118,-0.8,i,1
CC1(C)Cc2nc3sc4c(=O)n(CC(=O)NCc5ccccc5)cnc4c3cc2CO1,90,-6,-21,70,-0.7,i,0.73
Cc1ccccc1NC(=O)c1ccc(NC(=O)C2CC(=O)OC23CCCCC3)cc1 (stereo not drawn),104,-6,nt,nt,nt,i,0.98
CSc1sc(C(=O)O)c(C)c1C(C)=O,50,-10,-26,148,-3.1,i,0.88
CCCN(CCC)CCCNC(=O)c1cn(CC)c2ccc(S(=O)(=O)N3CCc4ccccc4C3)cc2c1=O,68,-6,-36,68,nt,nt,nt
CCCNc1nc(-c2cc(-c3ccc(Cl)cc3)on2)cc(C(C)C)n1,104,nt,nt,nt,nt,i,0.88
COc1cc2c(cc1OC)-c1cc(OCc3cccnc3)nc(=O)n1CC2,94,-5,28,160,-0.8,i,0.89
CCn1cnc2cc(NCc3ccc(OC)cc3)ccc21,100,-4,54,105,-0.9,i,0.76
Cc1nc2ccc(NC(=O)Cc3ccc4c(c3)OCCO4)cc2s1,103,-11,nt,nt,-1.0,i,1.1
O=C(CSc1ccc2nnc(-c3cccc(F)c3)n2n1)NCC1CCCO1 (stereo not drawn),83,-14,nt,nt,-4.0,i,0.88
CC1=C(C#N)C(c2cccnc2)C2=C(CCCC2=O)N1 (stereo not drawn),86,-8,-93,95,-1.3,i,0.88
Cc1ccc(Cc2cncc(O)c2)cc1S(=O)(=O)O,104,-7,6,86,-3.6,i,0.69
CS(=O)(=O)c1ccc(C(=O)OCc2nnc(-c3ccccc3)o2)cc1[N+](=O)[O-],100,2,-8,136,nt,i,0.91
COc1ccc(C(=O)N2CC(=O)N(CCc3ccccc3)C(=O)C2)cc1OC,100,8,13,108,-1.8,i,0.97
O=C1c2ccccc2C(=O)N1Cc1ccccn1,98,-2,-15,84,nt,i,0.89
Cc1ccc(C2Nc3cccc4cccc(c34)N2)s1,100,0,nt,nt,-1.0,nt,nt
O=c1[nH][nH]cc1C=Nc1ccc(Oc2ccccc2)cc1,100,-2,nt,nt,nt,i,0.93
COc1ccc(-c2csc(NC(=O)COC(=O)c3ccc(Br)o3)n2)cc1,59,-4,17,98,0.1,i,1
COc1cc(OC)cc(C(=O)N2CCN(C(=O)Cc3ccccc3)CC2)c1,105,4,nt,nt,nt,i,0.97
CCN(CC)S(=O)(=O)c1ccc(S(=O)(=O)Nc2ccc(C(=O)N3CCCC3)cc2)cc1,101,-6,-18,114,-2.3,i,0.82

(list continues)
molecule,RGS16-Gao HTS,PKD1 kinase inh,INS promoter inh,INS promoter inh cell count,GALR2 ag,HSV augment,HSV augment primary fold
C/C(=N\NC(=O)c1ccccc1)c1ccccc1Br,99,-8,29,100,-0.1,i,0.95
COC(=O)CSc1nnc(CNc2ccc(OC)cc2)n1C,100,-3,nt,nt,-0.2,i,1.1
Cc1ccc(NC(=O)CN(C)C(=O)Cn2ncc(Cl)c(Cl)c2=O)cc1,101,4,-212,5,-2.3,i,0.76
COc1ccc(OC)c(NC(=O)c2cc(-c3cc(Cl)ccc3O)n[nH]2)c1,97,-9,50,92,0.3,i,0.67
Cc1ccc(-n2nc(C(=O)N3CCN(C)CC3)c3c4ccccc4n(C)c3c2=O)cc1,nt,-3,-269,98,-1.2,i,0.84
Nc1nnc(-c2ccc(F)cc2)s1,96,7,8,58,0.3,i,1.1
CCCCC(=O)Nc1ccc(NC(=O)C(C)C)cn1,98,1,nt,nt,-1.6,i,1
O=C(CN1C(=O)S/C(=C/c2ccncc2)C1=O)N1CCOCC1,105,5,-15,105,-1.8,i,0.68
CC(=O)[C@H]1CC[C@H]2[C@@H]3CCC4=CC(=O)CC[C@]4(C)[C@H]3[C@H](O)C[C@]12C,nt,-3,13,103,-0.6,i,0.7
Cc1cc(C)n2nc(C(=O)N/N=C/c3c4ccccc4cc4ccccc34)nc2n1,110,-4,nt,nt,0.2,i,1
Cc1ccc(NCC(=O)Nc2c(C)n(C)n(-c3ccccc3)c2=O)cc1S(=O)(=O)N(C)C,100,nt,nt,nt,nt,i,1.2
COc1ccc(CC(=O)OCC(=O)Nc2ncc(Cl)cc2Cl)cc1,95,-2,-9,117,-1.8,i,0.96
CN(C)c1ccc(C(=O)NCC2CCCO2)cc1 (stereo not drawn),80,0,-31,63,-1.7,i,0.82
COc1ccc(O)c(C(=O)c2cc(C(=O)NCCc3ccccc3)c(=O)n(CCc3ccccc3)c2)c1,29,3,0,88,-2.4,nt,nt
CC1(C)Cc2ccccc2C(/C(C#N)=N/O)=N1,100,-2,14,109,nt,i,1
CC(C)CCNC(=O)c1ccc(Cl)c(NC(=O)Cc2ccccc2)c1,78,-4,-30,54,-0.4,i,0.95
CCN(c1cccc(C)c1)c1nc2ccsc2c(=O)s1,71,-6,-33,107,-2.0,i,1.1
Cc1cc(C)nc(NS(=O)(=O)c2ccc(N/C=C\C(=O)c3ccc(Cl)cc3)cc2)n1,97,2,70*,96*,-1.1,i,1.1
Cc1ccc(-n2c(O)c(C=NC3CCS(=O)(=O)C3)c3ccccc3c2=O)c(C)c1 (stereo not drawn),89,nt,nt,nt,nt,i,0.99
CC(OC(=O)CNC(=O)C12CC3CC(CC(C3)C1)C2)C(=O)Nc1ncc(Cl)cc1Cl (stereo not drawn),98,6,-269,29,-0.8,i,0.94
COc1ccc(Nc2nc(-c3ccccc3)cs2)cc1,101,1,-89,66,0.3,i,0.75
Cc1nc(SCC(=O)Nc2ccc3c(c2)OCCO3)nc(C)c1C,96,-4,nt,nt,nt,i,0.93
CCOC(=O)c1cccc(NC(=O)c2ccccc2C)c1,110,-6,-17,120,nt,i,1
Cc1cc(C)cc(N2C(=O)N(c3ccccc3C)C3CS(=O)(=O)CC32)c1 (stereo not drawn),100,-2,nt,nt,-1.1,i,0.86

Part of the list above in order of molar mass, rising:
molecule,RGS16-Gao HTS,PKD1 kinase inh,INS promoter inh,INS promoter inh cell count,GALR2 ag,HSV augment,HSV augment primary fold
CC(=O)[C@H]1CC[C@H]2[C@@H]3CCC4=CC(=O)CC[C@]4(C)[C@H]3[C@H](O)C[C@]12C,nt,-3,13,103,-0.6,i,0.7
O=C(CN1C(=O)S/C(=C/c2ccncc2)C1=O)N1CCOCC1,105,5,-15,105,-1.8,i,0.68
O=C(CSc1ccc2nnc(-c3cccc(F)c3)n2n1)NCC1CCCO1 (stereo not drawn),83,-14,nt,nt,-4.0,i,0.88
CS(=O)(=O)c1ccc(C(=O)OCc2nnc(-c3ccccc3)o2)cc1[N+](=O)[O-],100,2,-8,136,nt,i,0.91

Later entries
molecule,RGS16-Gao HTS,PKD1 kinase inh,INS promoter inh,INS promoter inh cell count,GALR2 ag,HSV augment,HSV augment primary fold
CCCCN1C[C@H](O)[C@@H](O)[C@H](O)[C@H]1CO,nt,-2,39,68,-0.7,i,0.77
CC(=O)n1nc(-c2ccc(C)cc2)nc1NCc1ccc(F)cc1,105,-3,nt,nt,nt,i,0.97
CCN(CC)CCNC(=O)c1cc2ccccc2nc1Cl,98,0,nt,nt,nt,i,0.93
Cc1ccsc1/C=C(\C(=O)c1ccc(OC(C)C)cc1)c1nc2ccccc2o1,97,2,-21,114,-2.9,i,1
